BJeLR viability: MLPCN primary cell-based screen for lethality selective to Ras in HRASV12 cells; BJeLR (HRASV12) viability, CellTiter-Glo ATP luminescence, 48 h; reference of the scale not given here; inhibition, % (test concentration not listed); 300,000 tested, 0.17% active; AID 1554, 2009;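 active means replicate mean above 50%; inconclusive means above 50% but judged a plate artefact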;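 further: 50 nL library stock added to about 25 µL; numbers are from one replicate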
PrP 5UTR inh: inhibition of PrP 5' UTR reporter expression. inhibition, % (concentration not given with the values). 340,000 tested, 0.35% active. cell-based PrP 5' UTR mRNA reporter, plate reader. AID 488862, 2010;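 active means every replicate at 50% or more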;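 further: 0 = median of the neutral control wells; tested in H4 reporter cells; numbers are from one replicate; inactives centre near -14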
Mtb hypoxia inh: PubChem AID 1159583; M. tuberculosis hypoxia-regulated fluorescent reporter, fluorescence; fluorescence inhibition, % (no concentration beside the values); 300,000 tested, 0.1% active;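 active means 35 to 45% if threefold the growth effect, above 45% if 1.5-fold the growth effect; inactive means the rest, general growth blockers included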;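 further: wells of about 50 µL received 100 nL stock; 0% = vehicle wells and 100% = reference inhibitor wells; whole bacteria with a GFP reporter of the hypoxia response; strong numbers were not always called active; many hits fall short of the cut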
RN4220 kill: growth inhibition of S. aureus RN4220, primary screen, OD600; 16 h; inhibition, % (no concentration beside the values); 330,000 tested, 0.33% active;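 active means z-score of -3 or lower and OD600 up to 0.18 on both plates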;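 further: plate controls were untreated cells for no effect and reference antibiotic for full effect; stock transfer was 100 nL into about 80 µL; one replicate is shown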
Bead autofluor: counter-screen for toxin protease inhibitors: compound fluorescence; fluorescence intensity (test concentration not listed); 360,000 tested, 3.1% active; compound autofluorescence counterscreen, microsphere flow cytometry; active compounds read high;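 active means at least 3 SD above the mean of all compounds, about 16000 in these data; inconclusive means too few beads counted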;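 further: 100 nL of 1 mM stock went into each well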
ugtP null kill: growth inhibition of ugtP-null S. aureus, primary screen, RN4220 ugtP deletion, OD600. 16 h; some inactives read as strong as hits. growth inhibition, % (test concentration not listed). 330,000 tested, 0.54% active;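 active means z-score under -3 and OD600 up to 0.15 on both plates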;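 further: plate controls were untreated wells for no effect and antibiotic for full effect; wells of about 80 µL received 100 nL stock; the first replicate is given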
Mtb hypoxia inh growth: also measured in Mtb hypoxia inh; calls as there; growth inhibition, %; measured here: M. tuberculosis growth (absorbance);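 0% = vehicle and 100% = reference antibiotic; read after six days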
* marks the source's active call; other numbers are inactive results; u = inconclusive; x = no result given; & = joins results of further samples.

Short keys: A = BJeLR viability; B = PrP 5UTR inh; C = Mtb hypoxia inh; D = Mtb hypoxia inh growth; E = RN4220 kill; F = Bead autofluor; G = ugtP null kill
> CCc1nnc(NC(=O)c2cccc(S(=O)(=O)N3CCCC3)c2)s1
  A = -2.6 | B = -27.0 | C = 9.2 | D = 1.5 | E = 2.5 | F = 5994 | G = -2.0

> CC1CCN(Cc2nnnn2-c2ccc(Cl)cc2)CC1
  A = -10.1 | B = -12.6 | C = 2.3 | D = 0.9 | E = -2.2 | F = 2190 | G = -1.7

> CC(=NOCC(=O)Nc1nc2ccccc2s1)c1ccccc1
  A = x | B = x | C = 14.4 | D = -0.9 | E = -1.1 | F = x | G = -13.9

> COc1ccc(NC(=O)Nc2ccccc2F)c([N+](=O)[O-])c1
  A = -4.2 | B = -44.3 | C = -6.5 | D = -2.8 | E = 7.1 | F = 2531 | G = 31.4

> O=C(c1ccc(Br)o1)N1CCN(c2ccc(F)cc2)CC1
  A = 3.9 | B = -13.3 | C = 22.2 | D = 24.0 | E = 10.7 | F = 8399 | G = 2.3

> COc1ccc(-c2nc3ccccc3c(=O)n2CCc2ccc(O)cc2)cc1
  A = 1.8 | B = -16.2 | C = 12.1 | D = 7.6 | E = 1.3 | F = 3244 | G = -1.1

> CC(=NO)c1cc(Cl)cc(Cl)c1O
  A = x | B = x | C = 9.6 | D = 12.4 | E = 9.4 | F = x | G = 3.2

> CCOC(=O)N/N=C(\C)c1ccc(OC(F)F)cc1OC(F)F
  A = 8.6 | B = -18.0 | C = x | D = x | E = x | F = 2447 | G = x

> O=c1[nH]c(=S)n(C2CC2)c(O)c1/C=N/Nc1ccccc1
  A = -14.5 | B = -35.3 | C = x | D = x | E = x | F = 8897 | G = x

> C[n+]1ccc(C(=O)NN=Cc2ccco2)cc1
  A = x | B = x | C = 7.8 | D = 6.6 | E = 0.8 | F = x | G = 1.5

> O=S(=O)(c1ccccc1)N1CCN(Cc2cccc(Br)c2)CC1
  A = 1.1 | B = x | C = 10.4 | D = 10.0 | E = 1.5 | F = x | G = 5.4

> CC12Cc3cnoc3C=C1CCC1C2CCC2(C)C1CCC2(C)O (configuration not stated)
  A = x | B = -9.6 | C = -0.6 | D = 2.9 | E = 0.6 | F = 3969 | G = 20.5

> Cc1ccc(-n2c(C)cc(C=C3C(=O)CC(C)(C)CC3=O)c2C)cc1
  A = -8.7 | B = -15.3 | C = 1.9 | D = 10.1 | E = 0.1 | F = 2439 | G = 3.1

> COc1ccc(N=CC2=C(O)CC(c3ccccc3)CC2=O)c(OC)c1 (configuration not stated)
  A = 13.1 | B = -72.4 | C = 7.4 | D = 0.6 | E = 0.1 | F = 4197 | G = 3.2

> COc1ccc(OCc2nnc3n2N=C(c2ccc(C)cc2)CS3)cc1
  A = -7.1 | B = -18.9 | C = x | D = x | E = 15.7 | F = 6114 | G = 10.9

> Cn1c(=O)cc(OCC(=O)NCCC2=CCCCC2)c2ccccc21
  A = 6.6 | B = -13.9 | C = 7.4 | D = 10.1 | E = 4.1 | F = 2239 | G = -2.4

> COc1ccccc1NC(=S)NC1CCCCCCCCCCC1
  A = 3.4 | B = -26.3 | C = -7.5 | D = -4.5 | E = 1.5 | F = 3705 | G = 23.5

> Cc1ccc(C(=O)NCC(=O)OCC(=O)NCCc2ccccc2)s1
  A = 3.0 | B = -39.6 | C = 11.7 | D = 1.5 | E = 4.3 | F = 4833 | G = 6.4

> CCOC(=O)c1cc2occc2n1Cc1ccc(F)cc1
  A = 18.3 | B = -9.9 | C = x | D = x | E = -3.0 | F = 2620 | G = 9.1

> CCN1C(=O)NC(c2ccccc2)C(C(=O)OC)C1C (configuration not stated)
  A = x | B = x | C = 11.2&10.2 | D = 9.6&2.2 | E = 8.7&5.6 | F = x | G = 13.1&3.6

> O=C(NC1CCCCC1)c1ccc(COc2ccccc2)o1
  A = -3.9 | B = -25.1 | C = 11.0 | D = 1.0 | E = -0.3 | F = 6391 | G = 8.2

> CCOC(=O)CN1C(=O)/C(=C/c2cccc(Br)c2)Oc2ccccc21
  A = -9.7 | B = -10.7 | C = 5.3 | D = -3.8 | E = 2.1 | F = 3040 | G = 1.7

> O=[N+]([O-])c1ccccc1/C=C/C=N/n1c(-c2ccc(Cl)cc2)n[nH]c1=S
  A = 0.0 | B = -14.1 | C = x | D = x | E = x | F = 2893 | G = x

> COc1ccc2nc(NC(=O)c3ccccc3[N+](=O)[O-])sc2c1
  A = -1.4 | B = -21.9 | C = -2.6 | D = -5.0 | E = 0.4 | F = 3810 | G = 7.4

> CCCSC1=N/C(=C\c2ccc3c(c2)OCO3)C(=O)S1
  A = -11.1 | B = -19.7 | C = 6.9 | D = 4.7 | E = 15.1 | F = 4615 | G = 8.2

Ordered by SMILES length (rising): some entries from above.
Short keys: A = BJeLR viability; B = PrP 5UTR inh; C = Mtb hypoxia inh; D = Mtb hypoxia inh growth; E = RN4220 kill; F = Bead autofluor; G = ugtP null kill
> CC(=NO)c1cc(Cl)cc(Cl)c1O
  A = x | B = x | C = 9.6 | D = 12.4 | E = 9.4 | F = x | G = 3.2

> CCOC(=O)c1cc2occc2n1Cc1ccc(F)cc1
  A = 18.3 | B = -9.9 | C = x | D = x | E = -3.0 | F = 2620 | G = 9.1

> O=C(NC1CCCCC1)c1ccc(COc2ccccc2)o1
  A = -3.9 | B = -25.1 | C = 11.0 | D = 1.0 | E = -0.3 | F = 6391 | G = 8.2

> CC(=NOCC(=O)Nc1nc2ccccc2s1)c1ccccc1
  A = x | B = x | C = 14.4 | D = -0.9 | E = -1.1 | F = x | G = -13.9

> CC12Cc3cnoc3C=C1CCC1C2CCC2(C)C1CCC2(C)O (configuration not stated)
  A = x | B = -9.6 | C = -0.6 | D = 2.9 | E = 0.6 | F = 3969 | G = 20.5

> Cn1c(=O)cc(OCC(=O)NCCC2=CCCCC2)c2ccccc21
  A = 6.6 | B = -13.9 | C = 7.4 | D = 10.1 | E = 4.1 | F = 2239 | G = -2.4

> O=c1[nH]c(=S)n(C2CC2)c(O)c1/C=N/Nc1ccccc1
  A = -14.5 | B = -35.3 | C = x | D = x | E = x | F = 8897 | G = x

> CCc1nnc(NC(=O)c2cccc(S(=O)(=O)N3CCCC3)c2)s1
  A = -2.6 | B = -27.0 | C = 9.2 | D = 1.5 | E = 2.5 | F = 5994 | G = -2.0

> CCOC(=O)CN1C(=O)/C(=C/c2cccc(Br)c2)Oc2ccccc21
  A = -9.7 | B = -10.7 | C = 5.3 | D = -3.8 | E = 2.1 | F = 3040 | G = 1.7

> Cc1ccc(-n2c(C)cc(C=C3C(=O)CC(C)(C)CC3=O)c2C)cc1
  A = -8.7 | B = -15.3 | C = 1.9 | D = 10.1 | E = 0.1 | F = 2439 | G = 3.1

> O=[N+]([O-])c1ccccc1/C=C/C=N/n1c(-c2ccc(Cl)cc2)n[nH]c1=S
  A = 0.0 | B = -14.1 | C = x | D = x | E = x | F = 2893 | G = x

The list continues:
Short keys: A = BJeLR viability; B = PrP 5UTR inh; C = Mtb hypoxia inh; D = Mtb hypoxia inh growth; E = RN4220 kill; F = Bead autofluor; G = ugtP null kill
> CSc1ccccc1C(=O)C1CCCN(C(=O)NC(C)C)C1 (configuration not stated)
  A = -0.9 | B = -16.3 | C = -8.5 | D = 8.9 | E = 2.2 | F = 4200 | G = -70.6

> Cc1ccccc1Oc1nnc(-c2cccs2)c2ccccc12
  A = -0.2 | B = -17.8 | C = 2.7 | D = -0.8 | E = -0.2 | F = 2066 | G = 14.9

> CCN(C(=O)COC(=O)CSc1ccc(C(N)=O)cc1[N+](=O)[O-])C1CCCCC1
  A = -2.1 | B = 2.6 | C = -14.0 | D = -3.6 | E = 2.2 | F = 5924 | G = 3.2

> COc1ccc(CCN2CC(C(=O)NCCc3cnn(C)c3)CCC2=O)cc1 (configuration not stated)
  A = 1.4 | B = -5.9 | C = 4.7 | D = 22.0 | E = 5.0 | F = 4532 | G = 11.2

> CCC1(C)CC(c2nc(-c3ccc(OC)cc3)cs2)CCS1 (configuration not stated)
  A = -3.4 | B = -21.7 | C = 2.9 | D = 6.2 | E = -3.5 | F = 2556 | G = 36.5

> COC(=O)NN=Cc1cn(CCOc2cccc(OC)c2)c2ccccc12
  A = x | B = x | C = -1.9 | D = 0.2 | E = 1.7 | F = x | G = 3.3

> CCC(C)[C@H](NC(=O)NC1CC1)C(=O)O (some centres not stated)
  A = 1.3 | B = -21.5 | C = 7.6 | D = 6.5 | E = 0.5 | F = 23360* | G = 3.1

> COc1ccc(N2C(=O)N3C(c4ccc(Br)cc4)C4C(=O)N(C(C)(C)C)C(=O)C4[C@]3(Cc3ccccc3)C2=O)cc1 (some centres not stated)
  A = x | B = x | C = -6.9 | D = 3.5 | E = 8.6 | F = x | G = 5.3

> CC(C)(C)C1CCC(OC(=O)CCC(=O)Nc2ccccc2)CC1 (configuration not stated)
  A = 17.4 | B = -26.8 | C = -5.4 | D = -6.2 | E = 2.9 | F = 2185 | G = 14.4

> Cc1nc(-c2ccccc2O)n(S(=O)(=O)N(C)C)n1
  A = -11.8 | B = -5.1 | C = -2.8 | D = 1.1 | E = -1.5 | F = 4356 | G = -4.6

> COc1ccccc1C(CNC(=O)c1ccc(NS(=O)(=O)c2ccc(C(C)=O)cc2)cc1)N1CCCC1 (configuration not stated)
  A = x | B = -22.9 | C = -8.1 | D = -5.4 | E = -2.4 | F = u | G = -5.1

Bioassay records (PubChem BioAssay)
